Menin MLL FP FL = menin-MLL binding inhibition, fluorescein peptide; Fluorescence polarization, fluorescein-MLL peptide displacement from menin; FP activity change, % at 61.4 µM; 290,000 tested, under 10 active; AID 1766; inconclusive = falling polarisation curve, or a change in total fluorescence; inactive = total fluorescence flat and polarisation flat or rising; no compound was filed as active; the % refers to the polarisation; negative = inhibition;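 further: % of control where 0% means no effect; inhibitors lower the polarisation; unlabelled MLL peptide was the positive control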
Sfp inh = Sfp phosphopantetheinyl transferase inhibition; Q9F4F7; AID 1490; Biochemical Sfp PPTase activity, qHTS; Potency, µM, inactives show max response, negative = inhibition, most hits filed as inhibitors; 310,000 compounds, 3.5% hits; active means well fitted inhibition curve with a large enough effect; inconclusive means small, poorly fitted or top-dose-only effect, or another doubt; inactive means no such curve, though single readings can be large or run the other way;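 further: the enzyme is Sfp with the accession as filed and its product quenches rhodamine fluorescence; potency means the concentration at half of the fitted maximal effect; 0% = enzyme reaction without inhibitor and -100% = no enzyme wells; top concentration of the series not given in the record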
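Fluorescence-quenching assay: 15 nM Sfp-PPTase preincubated 15 min at room temperature with compound, then 5 uM rhodamine-CoA and 12.5 uM BHQ-2-labelled YbbR peptide added. Fluorescence (ex 525/em 598 nm) read at start and after 30 min; difference gives rate.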
gsp antagonist = gsp mutant antagonism | gsp-mutant cells, cAMP HTRF, 30 min; control for the full effect not named in the record | Potency, µM (top dose mostly 76.9 µM), for inactives: top-dose activity change, negative = inhibition, hits mostly inhibitors | 340,000 compounds, 0.4% hits; active = falling curve of any shape with a large fitted effect; inconclusive = falling curve, mostly with a smaller effect; inactive = flat or rising curve; cell line not stated here;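 further: intracellular cAMP measured with PDE inhibitor Ro 20-1724 present during compound exposure; potency means the concentration at half of the fitted maximal effect; on the % scale 0 is the no-effect control and ±100 the full control effect; nearly all actives have a fitted effect of over 65% in size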
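Cells in G418 medium, seeded 16-24 h, 37C; buffer exchange to DPBS + 1 mM CaCl2, 0.5 mM MgCl2, 0.05% BSA; cpds in DMSO + […] (300 uM stock), 30 min 37C; HTRF cAMP detection.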
TRPV1 PAM = human TRPV1 potentiation; Q8NER1; AID 540277; 320,000 compounds, 0.02% hits; potentiation, % at 8.33 µM; TRPV1-expressing cells, Fluo-8 calcium influx, capsaicin EC20 potentiation; host cell line not named in the record; control for the full effect not named in the record; active means potentiation above 80%; inconclusive means 30% to 80%; inactive means below 30%; further: 0% is about no effect
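Fluo-8 calcium influx in TRPV1-expressing cells, kinetic read (ex 480/em 520 nm). Compound added and read 3 min for agonist activity, followed by capsaicin at EC20 final and 2 min further read for enhancement.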
gsp agonist = activates gsp, the McCune-Albright syndrome mutation. Potency, µM (series often up to 76.9 µM), without a hit: top-dose activation (cAMP increase), usual class: activators. gsp mutant cells, cAMP HTRF, 30 min; control for the full effect not named in the record. 340,000 compounds, 0.13% hits. AID 624287; active = well fitted activation curve with a large enough effect; inconclusive = small, poorly fitted or top-dose-only effect, or another doubt; inactive = no such curve, though single readings can be large or run the other way; cell line not stated here;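 further: phosphodiesterase inhibitor Ro 20-1724 added with compounds to block cAMP breakdown; potency means the concentration at half of the fitted maximal effect; nearly all actives have a fitted effect of over 60% in size; about a fifth of the inactives were tested at one dose only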
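Cells in DMEM/10% FBS with G418 were pretreated with compounds in DMSO plus […] (300 uM stock) for 30 min at 37C. cAMP was measured by HTRF (cAMP-d2 plus anti-cAMP antibody-K) after 30 min at room temperature.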
ClpP mod = qHTS Assay for Activators of ClpP; purified B. subtilis ClpP, FRET peptide cleavage, 20 min; Potency, µM (titrated, usually from 57.5 µM), for inactives: at the highest dose activity change, negative = active; 340,000 compounds, 1.9% hits; AID 651965, 2013; active = well fitted falling curve with a large enough effect; inconclusive = small, poorly fitted or top-dose-only effect; inactive = no such curve, though single readings can be large or run the other way; further: potency means the concentration at half of the fitted maximal effect; the source files actives as falling curves though it sought activators and does not explain the sign; nearly all actives have a fitted effect of over 65% in size; many hits overshoot -100%
Target sequence (P80244 whole entry, looked up): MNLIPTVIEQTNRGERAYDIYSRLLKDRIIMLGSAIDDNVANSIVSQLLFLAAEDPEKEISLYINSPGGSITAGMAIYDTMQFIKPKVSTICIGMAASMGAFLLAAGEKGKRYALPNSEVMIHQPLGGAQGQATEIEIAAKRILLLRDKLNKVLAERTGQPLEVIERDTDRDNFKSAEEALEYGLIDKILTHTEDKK
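FRET quenching reversal measured ClpP activation: 10 microg/mL B. subtilis ClpP at pH 8 with the FRET-FV decapeptide, read at 430 nm after 320 nm excitation. The 20-min minus 0-min signal was scaled between DMSO/no-enzyme wells and ADEP (5.8 microM final).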
D2 PAM = human D2 receptor positive allosteric modulation; potentiation, % (no concentration beside the values); DiscoveRx D2 beta-arrestin cells, luminescence, 90 min; 100% = 57 uM dopamine signal; P14416; 360,000 compounds, 0.23% hits; AID 624464; active = potentiation of 50% or more; inconclusive = 30% to 50%; inactive = 30% or less;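 further: compound concentration not given in the record; tested on top of an EC20 dose of dopamine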
Target sequence (P14416 whole entry, looked up): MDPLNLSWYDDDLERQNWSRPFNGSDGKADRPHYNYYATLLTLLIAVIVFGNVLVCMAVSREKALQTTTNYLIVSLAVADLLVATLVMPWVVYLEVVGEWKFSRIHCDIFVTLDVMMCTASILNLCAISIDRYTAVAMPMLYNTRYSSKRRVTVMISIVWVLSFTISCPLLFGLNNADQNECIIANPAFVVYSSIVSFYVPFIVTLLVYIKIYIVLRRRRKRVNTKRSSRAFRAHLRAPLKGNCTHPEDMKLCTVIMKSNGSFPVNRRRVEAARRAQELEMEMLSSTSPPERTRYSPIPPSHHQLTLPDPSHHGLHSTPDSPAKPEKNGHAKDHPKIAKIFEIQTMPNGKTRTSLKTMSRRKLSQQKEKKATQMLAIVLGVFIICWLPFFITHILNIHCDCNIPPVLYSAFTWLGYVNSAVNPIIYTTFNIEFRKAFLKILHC
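D2 cells co-treated with compound plus 50 nM dopamine (EC20) for 90 min at 37 deg C to detect potentiation. Beta-arrestin recruitment was read as enzyme-fragment luminescence after 1 h at ambient temperature. Full response was set by 57 uM dopamine.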
* marks the source's active call; other numbers are inactive results; [ ] = dose if it differs, or a comment.

Results for Cc1sc2nc(COC(=O)CNC(=O)c3ccc(C(C)(C)C)cc3)[nH]c(=O)c2c1C ?
Menin MLL FP FL: 2.7; Sfp inh: 2.0%; gsp antagonist: 6.5%; TRPV1 PAM: -5.7; gsp agonist: 2.0%; ClpP mod: -3.3%; D2 PAM: -13.5

How did Cc1ccc(C)c(-n2ccnc2SCC(=O)Nc2cccc(S(=O)(=O)NC3=NCCC3)c2)c1 do in these assays?
gsp antagonist: -8.7%; TRPV1 PAM: -10.4; gsp agonist: 1.4%; ClpP mod: 0.6%; D2 PAM: 1.4

Results for Cc1ccc(NC(=O)C2C3CCC(O3)C2C(=O)O)c(Br)c1 (stereo not given) ?
Menin MLL FP FL: -5.6; Sfp inh: 19.9%; gsp antagonist: 2.7%; TRPV1 PAM: 15.9; gsp agonist: -46.4%[inhibitor]; D2 PAM: -0.6

How did CCn1c(=O)c(C(=O)Nc2ccc(C)cc2)c(O)c2ccccc21 do in these assays?
Menin MLL FP FL: 5.5; Sfp inh: 19.2%; gsp antagonist: -1.9%; TRPV1 PAM: inconclusive; gsp agonist: 9.1%[15.4 µM]; ClpP mod: -0.5%; D2 PAM: -15.7

How did O=C(Nc1ccccc1C(F)(F)F)c1cccnc1 do in these assays?
Menin MLL FP FL: 3.7; Sfp inh: 0.4%; gsp antagonist: 9.4%; TRPV1 PAM: 0.1; gsp agonist: -29.3%; ClpP mod: -0.4%; D2 PAM: -0.8

How did COc1ccccc1-c1nn(-c2ccccc2)cc1C(=O)N1CCc2ccccc2C1 do in these assays?
gsp antagonist: -23.7%; TRPV1 PAM: -3.7; gsp agonist: inconclusive; ClpP mod: -7.1%; D2 PAM: -13.6

What do the screens show for `CC(NC(=O)c1ccccc1NC(=O)CSc1nnnn1C)c1ccccc1` (stereo not given)?
Menin MLL FP FL: 0.6; Sfp inh: 16.8%; gsp antagonist: 8.4%; TRPV1 PAM: 25.1; gsp agonist: -32.4%[inhibitor]; ClpP mod: 2.3%; D2 PAM: 3.5

What do the screens show for `COc1cc(OC)c2c(c1)O/C(=C\c1ccccc1)C2=O`?
gsp antagonist: -19.2%; gsp agonist: 9.2%; ClpP mod: -13.9%; D2 PAM: -0.7

Results for O=C(Nc1cccc(C(F)(F)F)c1)c1cc(-c2cccs2)on1 ?
Menin MLL FP FL: 4.3; Sfp inh: 18.9%; gsp antagonist: 8.2%; TRPV1 PAM: -4.1; gsp agonist: inconclusive; ClpP mod: -3.8%; D2 PAM: -12.3

How did COc1ccc(/C=N/NC(=O)CCNc2n[nH]c(=O)[nH]c2=O)c(OC)c1 do in these assays?
Menin MLL FP FL: 3.4; Sfp inh: -15.1%; gsp antagonist: -15.9%; TRPV1 PAM: -13.7; gsp agonist: inconclusive; D2 PAM: -6.2

What do the screens show for `COC(=O)Cn1c(=O)c2c(nc3n2CC(C)CN3Cc2ccccc2)n(C)c1=O` (stereo not given)?
Menin MLL FP FL: 2.6; Sfp inh: -4.9%; gsp antagonist: -25.9%; TRPV1 PAM: 2.1; gsp agonist: -10.8%; ClpP mod: 1.1%; D2 PAM: -11.8

How did CSCCC(NS(=O)(=O)c1ccc(C)cc1)C(=O)N1CCN(S(=O)(=O)c2ccc(F)cc2)CC1 (stereo not given) do in these assays?
gsp antagonist: -6.2%; TRPV1 PAM: 5.7; gsp agonist: -15.1%; ClpP mod: -3.5%; D2 PAM: 5.9

How did Cc1ccc(C(=O)N2[C@@H]3CN(C)C(=O)[C@@]2(Cc2ccccc2)[C@H]2C(=O)N(C)C(=O)[C@@H]32)cc1 do in these assays?
gsp antagonist: 3.5%; ClpP mod: 0.5%; D2 PAM: 0.1

How did O=C(c1cccs1)N(Cc1ccc(F)cc1)C1CCS(=O)(=O)C1 (stereo not given) do in these assays?
Menin MLL FP FL: 1.7; Sfp inh: 5.7%; gsp antagonist: 1.6%; TRPV1 PAM: 1.7; gsp agonist: -0.1%; ClpP mod: 0.1%; D2 PAM: -3.6

How did CCOC(=O)c1sc(NC(=O)CSc2nc3ccccc3o2)c(C(=O)OCC)c1C do in these assays?
Menin MLL FP FL: 45.6[activator]; Sfp inh: 7.3%; gsp antagonist: 3.9%; TRPV1 PAM: 5.8; gsp agonist: -28.1%; ClpP mod: -2.8%; D2 PAM: -7.8

2 records picked at random from the list so far:
How did CCn1c(=O)c(C(=O)Nc2ccc(C)cc2)c(O)c2ccccc21 do in these assays?
Menin MLL FP FL: 5.5; Sfp inh: 19.2%; gsp antagonist: -1.9%; TRPV1 PAM: inconclusive; gsp agonist: 9.1%[15.4 µM]; ClpP mod: -0.5%; D2 PAM: -15.7

How did CSCCC(NS(=O)(=O)c1ccc(C)cc1)C(=O)N1CCN(S(=O)(=O)c2ccc(F)cc2)CC1 (stereo not given) do in these assays?
gsp antagonist: -6.2%; TRPV1 PAM: 5.7; gsp agonist: -15.1%; ClpP mod: -3.5%; D2 PAM: 5.9

Other structures.
What do the screens show for `O=C(NCC(c1ccco1)N1CCN(c2ccc(F)cc2)CC1)C(=O)NC1CC1` (stereo not given)?
gsp antagonist: 10.1%; TRPV1 PAM: -11.1; gsp agonist: -14.0%; ClpP mod: -3.3%; D2 PAM: -2.6

How did COc1ccc(OCC(=O)Nc2ccc3oc(-c4ccncc4)nc3c2)cc1 do in these assays?
Menin MLL FP FL: 5.0; Sfp inh: 20.2%; gsp antagonist: inconclusive; TRPV1 PAM: -4.0; gsp agonist: -20.1%; D2 PAM: -6.8

How did CC1=C(C(=O)N(C)C)CC(CC(=O)NCCc2ccccn2)C(=O)N1CCCN1CCCC1=O (stereo not given) do in these assays?
gsp agonist: -70.9%[inhibitor]; ClpP mod: -2.4%; D2 PAM: -1.1

How did Brc1ccc(C2=CSC3=NCCN23)cc1 do in these assays?
Menin MLL FP FL: -0.6; Sfp inh: 10.7%; gsp antagonist: 6.8%; TRPV1 PAM: -2.6; gsp agonist: 29.4%; D2 PAM: -6.7

Results for CCOC(=O)C(C)Sc1nnc(Cc2cc(=O)[nH]c(=O)[nH]2)n1-c1ccc(Cl)cc1 (stereo not given) ?
Menin MLL FP FL: 3.0; Sfp inh: -1.9%; gsp antagonist: -2.8%; TRPV1 PAM: -6.6; gsp agonist: -41.8%[inhibitor]; ClpP mod: -0.8%; D2 PAM: -8.4

Results for Cc1ccc(Cl)cc1NC(=O)CN1C(=O)NC2(CCCCCC2)C1=O ?
gsp antagonist: -0.3%; TRPV1 PAM: 1.1; gsp agonist: -0.3%; ClpP mod: -0.7%; D2 PAM: -15.1

How did CCOC(=O)c1[nH]c2ccc(Br)cc2c1NC(=O)CCN1CCN(C(=O)OCC)CC1 do in these assays?
Menin MLL FP FL: 0.9; Sfp inh: 9.7%; gsp antagonist: -10.3%; TRPV1 PAM: -24.5; gsp agonist: -47.1%[inhibitor]; ClpP mod: -4.5%; D2 PAM: -14.4

What do the screens show for `O=C1CC(c2ccccc2)=NO1`?
gsp antagonist: 0.7%; gsp agonist: -0.4%; D2 PAM: -8.1

What do the screens show for `COc1cc(/C=C2\SC(=O)N(CCNC(=O)c3c(C)noc3C)C2=O)cc(OC)c1OC`?
gsp antagonist: -0.2%; gsp agonist: 4.0%; D2 PAM: -0.1

How did CCCCn1c(=O)c(CCC(=O)OC(C)C(=O)Nc2cccc(Cl)c2Cl)nc2ccccc21 (stereo not given) do in these assays?
Menin MLL FP FL: 5.7; Sfp inh: 11.3%; gsp antagonist: -12.2%; TRPV1 PAM: 5.6; gsp agonist: 0.3%; ClpP mod: -28.1%; D2 PAM: -26.8

How did Cn1cnc2cc(NC(=O)c3ccco3)ccc21 do in these assays?
Menin MLL FP FL: -0.1; Sfp inh: 16.5%; gsp antagonist: 5.5%; TRPV1 PAM: -3.7; gsp agonist: -74.9%[inhibitor]; ClpP mod: -0.4%; D2 PAM: 0.5

How did CCN(CC)S(=O)(=O)c1ccc(C)c(NC(=O)COc2ccc(Cl)cc2Br)c1 do in these assays?
Menin MLL FP FL: 5.8; Sfp inh: 7.6%; gsp antagonist: 14.3%; TRPV1 PAM: 5.1; gsp agonist: -9.9%[15.4 µM]; ClpP mod: -0.4%; D2 PAM: 2.7

Results for O=C(COC(=O)Cc1c[nH]c2ccccc12)Nc1cccc(Br)c1 ?
gsp agonist: -55.1%[inhibitor]; ClpP mod: 3.1%; D2 PAM: -18.7

Results for COc1ccccc1CCNS(=O)(=O)c1cn(C)c(=O)n(C)c1=O ?
Menin MLL FP FL: 3.6; Sfp inh: 3.6%; gsp antagonist: 2.6%; TRPV1 PAM: -2.6; gsp agonist: inconclusive; ClpP mod: -1.7%; D2 PAM: -7.6

Results for CCN(CC)S(=O)(=O)c1cc(C(=O)Nc2cc(C)on2)ccc1Cl ?
Sfp inh: -1.5%; gsp antagonist: 3.5%; TRPV1 PAM: 16.0; gsp agonist: 7.5%; D2 PAM: -4.7

What do the screens show for `CCCN(CCC)S(=O)(=O)c1cc(Br)cc2c1N(C(=O)CC)CC2`?
Menin MLL FP FL: -1.1; Sfp inh: -11.7%; gsp antagonist: inconclusive; TRPV1 PAM: -2.8; gsp agonist: 17.8%; ClpP mod: 10.7%; D2 PAM: 9.2

How did CCOC(=O)C1CCCN(CC(=O)Nc2c(C(=O)OC)[nH]c3ccc(Br)cc23)C1 (stereo not given) do in these assays?
Menin MLL FP FL: 2.2; Sfp inh: -4.3%; gsp antagonist: inconclusive; TRPV1 PAM: 8.3; gsp agonist: 8.6%; ClpP mod: -7.1%; D2 PAM: -20.8

How did O=C(c1ccc(S(=O)(=O)c2ccc(F)cc2)c([N+](=O)[O-])c1)N1CCCCCC1 do in these assays?
Menin MLL FP FL: 0.2; Sfp inh: 7.3%; gsp antagonist: -8.3%; TRPV1 PAM: -4.0; gsp agonist: -3.4%[15.4 µM]; ClpP mod: 1.5%; D2 PAM: 17.2

How did CCc1ccccc1NC(=O)CN(C)C(=O)CSc1nn(-c2ccc(F)cc2)c(=S)s1 do in these assays?
Menin MLL FP FL: 0.4; Sfp inh: 6.2%; gsp antagonist: -19.3%; TRPV1 PAM: 10.1; gsp agonist: 3.0%[15.4 µM]; ClpP mod: -0.2%; D2 PAM: -2.9

Results for CCC(CC)NC(=O)c1ccc(Cl)cc1 ?
Menin MLL FP FL: 0.1; Sfp inh: 6.6%; gsp antagonist: 4.0%; TRPV1 PAM: -3.5; gsp agonist: -22.0%; ClpP mod: 0.6%; D2 PAM: -13.9

Bioassay records from PubChem.
